Screening data as filed in PubChem.
Yeast UUG start: yeast start codon fidelity modulation; S. cerevisiae UUG-firefly luciferase reporter, luminescence/redox ratio; activity score, % at 18.7 µM; 350,000 tested, 0.13% active; AID 602363;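 active = replicate mean at a twofold rise or more, about +100% in these data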;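 also: firefly luciferase made from a UUG start codon reports start codon fidelity; reporter light over untreated wells divided by growth signal over untreated wells; some hits fall short of that in this replicate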
MT1-MMP act inh: blocks activation of human MT1-MMP. HT1080 RFP-PRO-GFP cells, GFP/RFP ratio fluorescence, overnight; percent of plate control window, DMSO zero. GFP/RFP ratio change, % at 20 µM. 360,000 tested, 0.061% active;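 active = GFP/RFP ratio change of at least 30% with cell ATP level not reduced by more than half and red fluorescence within 50% of control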; also: strong numbers were not always called active
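Test system: HT1080 cells expressing an RFP-PRO-GFP fluorescent reporter construct / Compound dosing: single-point 20 µM compound, 1% DMSO / Schedule: cells overnight before dosing, compound overnight, 37 °C, 5% CO2 / Evaluation: GFP/RFP fluorescence ratio / Control set: DMSO and RFP-L50D-GFP cell wells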
MT1-MMP act inh RFP: further read-out of MT1-MMP act inh, marked with its call; RFP signal change, %; measured here: RFP expression control read;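 0 = vehicle wells; hits needed this value within 50% of zero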
Numbers without * were called inactive; & = joins results of further samples. A portion of the library; the hit share may differ from the screen's.

SMILES | Yeast UUG start | MT1-MMP act inh | MT1-MMP act inh RFP
CC1=C(C(=O)N2CCOCC2)CC(CC(=O)NC(c2ccccc2)c2ccccc2)C(=O)N1CCC1=CCCCC1 (stereo unspecified) | -7 | 2 | -6
COc1ccccc1-c1noc2c1C(=O)N(Cc1cn(-c3ccccc3)nn1)CC2 | -9 | 1 | -4
CCOc1cc(C(=O)N(Cc2ccccc2)c2ccc(C)cc2)ccc1OCC(=O)N1CCOCC1 | -15 | -4 | -1
CCN(C(=O)CSc1nnc(-c2ccco2)n1C)c1c(N)n(Cc2ccccc2)c(=O)[nH]c1=O | -10 | 1 | 6
Cc1cccc(-n2ccnc2SCC(=O)c2c(N)n(C3CC3)c(=O)[nH]c2=O)c1C | -21 | -6 | 0
O=C1c2ccccc2C(=O)N1c1nccs1 | -7 | 0 | 2
CC[C@]12c3[nH]c4ccc(OC)cc4c3CCN1C(=O)C(CC(=O)NCc1ccco1)C[C@@H]2C(=O)N1CCN(C(=O)C2CC2)CC1 (stereo partly specified) | -15 | 4 | 4
COCCNC(=O)C1CCCN(Cc2ccccc2-c2ccccc2)CC1 (stereo unspecified) | -5 | 3 | 8
Cc1cccc(N2CCN(CC(=O)N(C3CCCC3)C3CCS(=O)(=O)C3)CC2)c1C (stereo unspecified) | 2 | 4 | 1
O=c1ccoc2ccccc12 | 7 | 7 | 4
CC(=O)OCC(=O)C1(O)CCC2C3CCC4CC(O)CCC4(C)C3C(=O)CC21C (stereo unspecified) | 2 | 7 | 10
COc1ccc(-c2noc(CCC(=O)N3CCN(c4ccccc4Cl)CC3)n2)cc1 | -8 | 0 | 1
O=C(NNC(=S)Nc1ccc(Cl)cc1Cl)c1cccnc1 | -17 | -2 | 3
CCN([C@H](CO)CC(C)C)S(=O)(=O)c1ccccc1 | -2 | 4 | 4
CCN(CC)S(=O)(=O)c1ccc(N2CCOCC2)c(NC(=O)COc2ccccc2C)c1 | 9 | -2 | -8
CCOC(=O)C1(C)CCCN(C(=O)c2ccccc2OC(F)(F)F)C1 (stereo unspecified) | -7 | -2 | 1
COc1ccc(C(CNC(=O)c2ccc(OCc3c(C)noc3C)cc2)N2CCCC2)cc1 (stereo unspecified) | -1 | 2 | -2
O=C(CSCC(=O)NN=Cc1ccccc1)NN=Cc1ccccc1 | -28 | 1 | 3
COc1cccc(CNC(=O)c2ccc(NC(=O)CC3SC(N4CCCCC4)=NC3=O)cc2)c1 (stereo unspecified) | 7 | 3 | -1
O[C@@H]1CN(Cc2cccs2)[C@@H](c2ccccc2)C[C@H]1n1cc(C2CC2)nn1 | -12 | 0 | 1
Cc1cccc(C)c1NC(=O)CSc1nc2[nH]c(=O)cc(O)c2s1 | -22 | -4 | 4
O=C1NC(=O)C2(CCCC2c2ccccc2)N1 (stereo unspecified) | -6 | 0 | 1
CC1=C(C(=O)N(C(C)C)C(C)C)CC(CC(=O)NCc2cccc3ccccc23)C(=O)N1CCC1=CCCCC1 (stereo unspecified) | -16 | -6 | -15
C[C@H](CO)N1C[C@H](C)[C@H](CN(C)S(=O)(=O)c2cn(C)cn2)OCc2cnnn2CCCC1=O | -5&-7 | 6 | 1
COc1ccc(CN(C)CCCn2cnc3c(SC)ncnc32)cc1OC | -11 | -1 | 3
COc1cccc(S(=O)(=O)N(C)C[C@H]2OCc3cnnn3CCCC(=O)N([C@H](C)CO)C[C@@H]2C)c1 | 11&-1 | -3 | 1
CCOC(=O)C(Cc1c[nH]c2cc([N+](=O)[O-])ccc12)(NC(C)=O)C(=O)OCC | -1 | 1 | -2
O=C(CN1C(=O)NC(Cc2ccccc2)C1=O)Nc1ccc(F)c(Cl)c1 (stereo unspecified) | -38 | 4 | 3
CN1CCN(C(=O)CCCN2C(=O)/C(=C/c3ccc(Cl)cc3)SC2=S)CC1 | -30 | 1 | -1
CCc1nnc(NC(=O)c2cc(S(=O)(=O)N3CCN(CC)CC3)ccc2Cl)s1 | 14 | 5 | 4
COc1cc(CCC(=O)OCC(=O)Nc2sccc2C(N)=O)cc(OC)c1OC | -2 | -10 | -27
C[C@H](CO)N1C[C@H](C)[C@@H](CN(C)C(=O)c2ccc3ccn(C)c3c2)OCc2cnnn2CCCC1=O | -18&-6 | -1 | -1
C[C@H](CO)NC(=O)c1[nH]cnc1C(=O)Nc1ccc(CNC(=O)OC(C)(C)C)cc1 | 17 | 2 | 3
OC1C2COC(O2)C2OC(c3ccccc3)OC12 (stereo unspecified) | 25 | 1 | 3
CS(=O)(=O)Nc1cccc(NC(=O)c2cccc3c(-c4cccnc4)coc23)c1 | -27 | -5 | -4
CCCN(CC(=O)Nc1ccccc1C)C(=O)Cc1c[nH]c2ccccc12 | -15 | 2 | 0
O=C(N/N=C/c1ccccc1C(=O)O)c1cccc(S(=O)(=O)N2CCCCC2)c1 | -4 | -6 | 0
COc1cc(OC)cc(C(=O)OCC(=O)NC2CCCCCC2)c1 | -15 | 2 | 5
COc1ccc(S(=O)(=O)N2CCN(C(=O)c3ccc4ccccc4n3)CC2)cc1 | 0 | -2 | -4
N#Cc1ccccc1OCC(=O)NNC(=O)CNC(=O)c1cccc(Br)c1 | -6 | -2 | 3

Another view of 4 compounds above.
CCc1nnc(NC(=O)c2cc(S(=O)(=O)N3CCN(CC)CC3)ccc2Cl)s1
  Yeast UUG start: 14 | MT1-MMP act inh: 5 | MT1-MMP act inh RFP: 4
COc1cc(CCC(=O)OCC(=O)Nc2sccc2C(N)=O)cc(OC)c1OC
  Yeast UUG start: -2 | MT1-MMP act inh: -10 | MT1-MMP act inh RFP: -27
C[C@H](CO)N1C[C@H](C)[C@@H](CN(C)C(=O)c2ccc3ccn(C)c3c2)OCc2cnnn2CCCC1=O
  Yeast UUG start: -18&-6 | MT1-MMP act inh: -1 | MT1-MMP act inh RFP: -1
C[C@H](CO)NC(=O)c1[nH]cnc1C(=O)Nc1ccc(CNC(=O)OC(C)(C)C)cc1
  Yeast UUG start: 17 | MT1-MMP act inh: 2 | MT1-MMP act inh RFP: 3

Next section
SMILES | Yeast UUG start | MT1-MMP act inh | MT1-MMP act inh RFP
O=C(Cc1ccc(NC(=O)C2CCCN(C(=O)C3CC3)C2)cc1)Nc1cccc(C(=O)N2CCCCC2)c1 (stereo unspecified) | 4 | 1 | 5
CCOc1ccc(NS(=O)(=O)c2cc(C(=O)NCCCN3CCOCC3)ccc2C)cc1 | -11 | 1 | 4
COCCCNC1=C(C#N)C(=O)NC(c2cccs2)S1 (stereo unspecified) | -6 | -2 | 1
Clc1cccc(-c2ccc(C3Nc4cccc5cccc(c45)N3)o2)c1 | 3 | 1 | 2
Cc1nc(SCC(=O)N(CC(C)C)C2CCS(=O)(=O)C2)c2ccccc2n1 (stereo unspecified) | -8 | -7 | -1
CC(=O)N1CCN(S(=O)(=O)c2cccc(C(=O)NC3CCCC3)c2)CC1 | -12 | 0 | 1
CC(C)C[C@H]1CN([C@@H](CC(C)C)CN2CCCC2CN2C(=S)NC[C@@H]2Cc2ccc(O)cc2)C(=S)N1CC1CCCCCC1 (stereo partly specified) | -11 | -10 | -17
COc1ccccc1N(CC(=O)Nc1cc(C)on1)S(=O)(=O)c1cccc(C(F)(F)F)c1 | -13 | -4 | -4
CCOC1=C2[C@@H](CN(S(=O)(=O)c3ccc(C)cc3)[C@H]2c2ccccc2F)[C@H]2C(=O)N(c3ccccc3)C(=O)[C@H]2C1 | -8 | 2 | 1
CSCCC(NC(=O)c1ccccc1Br)C(=O)NNC(=O)C1COc2ccccc2O1 (stereo unspecified) | -13 | 0 | 6
C[C@H](CO)N1C[C@H](C)[C@H](CN(C)S(=O)(=O)c2ccc(C#N)cc2)OCc2cnnn2CCCC1=O | -4 | -1 | 3
CC1(C(=O)NS(=O)(=O)C2CC2)CCCN(C(=O)COc2ccccc2)C1 (stereo unspecified) | -17 | 4 | 6
O=C(CNC(=O)c1cc(=O)[nH]c2ccc(S(=O)(=O)N3CCOCC3)cc12)Nc1ccc(F)c(F)c1 | 108* | -4 | -1
CC(C)=C(c1ccc(Cl)cc1)c1c(N)ncnc1N | -22 | 11 | -4
COc1ccc(-c2cc(=O)c3ccc(O)cc3o2)cc1OC | -3 | -2 | 1
CC1=C(C(=O)N(C(C)C)C(C)C)CC(CC(=O)NCc2ccco2)C(=O)N1Cc1ccc(C(C)(C)C)cc1 (stereo unspecified) | 11 | 1 | -7
CCCOc1ccc(F)cc1-c1cc(C(=O)NC(C)C)[nH]n1 | -7 | 4 | -1
O=C(c1ccccc1)c1ccc2ccccc2c1 | -9 | 2 | 2
CCN1C(=O)[C@H]2[C@@H](c3ccc(C(F)(F)F)cc3)N[C@]3(CCCN(Cc4ccc(Cl)cc4)C3=O)[C@H]2C1=O | -19 | 1 | -1
O=C(c1ccccc1)c1ccc(O)c(O)c1O | -20 | 0 | 1
COc1ccc(NC(=O)c2ccc3c(c2)NC(=O)CS3)cc1 | -4 | 3 | -2
CCOC(=O)c1c(C)[nH]c(C(=O)CN(C)CC(=O)Nc2ccccc2C(F)(F)F)c1C | 10 | -4 | 0
COc1cccc(CN(C)C(=O)CSCC(=O)Nc2cccc(C)c2)c1OC | 6 | 2 | 2
O=C(COc1ccc(Br)cc1Cl)NNC(=O)c1ccccc1 | -10 | 5 | -3
COC(=O)[C@@H](Cc1ccccc1)NC(=O)Cn1cc(C)c(=O)[nH]c1=O | -12 | 4 | 6
CCN(CC)S(=O)(=O)c1ccc(/C=C/C(=O)OCC(=O)NNC(=O)c2ccc(OC)cc2)cc1 | -1 | 4 | 5
Cc1cnc(C(=O)OCc2nc3ccsc3c(=O)[nH]2)cn1 | 0 | 0 | 0
O=C(O)c1cccc(Br)c1 | -19 | -2 | 3
COc1cc(/C=C/C(=O)Nc2cccc(S(=O)(=O)N3CCOCC3)c2)ccc1OCC#N | -12 | 11 | -5
CN(Cc1ccccc1F)C(=O)CCNC(=O)c1ccc(C(C)(C)C)cc1 | 4 | 4 | -1
O=C(CNC(=O)C1CCCC1)Nc1ccccc1Br | -13 | -1 | 1
CC(C)(C)OC(=O)NCc1ccc(NC(=O)c2nc[nH]c2C(=O)NCCNC(=O)c2[nH]cnc2C(=O)Nc2ccc(CNC(=O)OC(C)(C)C)cc2)cc1 | -17 | -44 | -19
CC(=O)Nc1ccc(SC(Sc2ccc(NC(C)=O)cc2)c2ccccc2)cc1 | -8 | -2 | 6
Cc1ccnc(NC(=O)c2ccc(Cl)c(S(=O)(=O)N3CCCCC3)c2)c1 | 1 | -2 | -22
CCN(CC)c1ncnc2c1nnn2C | -13 | 0 | 4
COc1ccc(S(=O)(=O)N2CCN(C(=O)C3CC3)CC2)cc1Br | 0 | 7 | 5
c1ccc(COc2cccc(-c3cc4nc(NCc5cccs5)ccn4n3)c2)cc1 | -16 | 8 | -9
c1cncc(-c2ccc3ncnc(NCc4ccc5c(c4)OCO5)c3c2)c1 | 7 | -11 | -1
O=C(OCCOc1ccccc1F)c1cc(S(=O)(=O)N2CCOCC2)ccc1F | -16 | -1 | 5
CCCCNC(=O)c1ccccc1C(=O)NC1(C(=O)NCCCC)CCCC1 | -13 | -2 | 1
CC1CC(C)(C)CC2(C1)NC(=O)N(CC(=O)N1CCN(S(=O)(=O)c3cccs3)CC1)C2=O (stereo unspecified) | -3 | -11 | 6
COc1ccc(C(=O)NC(C(=O)NCC2(N3CCCCC3)CCCCC2)C(C)C)cc1 (stereo unspecified) | -1 | -2 | 0
COc1cc(OC)c(N2CC(C(=O)NCCC3=CCCCC3)CC2=O)cc1Cl (stereo unspecified) | 1 | -1 | -2
COc1cccc(C(=O)C[n+]2cccc3cc(OC)ccc32)c1 | -21 | -43 | 15
CCC1(O)C(=O)OCc2c1cc1n(c2=O)Cc2cc3cc(O)ccc3nc2-1 (stereo unspecified) | -6 | -41 | -13
CC(=O)C1C=CC(C)(C(=O)O)C2C=C(C)C(=O)C(C)(O)C12 (stereo unspecified) | 7 | -3 | 0
Cc1c(Cl)cnc(NC(=O)COC(=O)[C@H](C)NC(=O)c2ccccc2)c1Cl | -15 | 0 | 4
CCn1c(SCC(=O)N2CCC(C(N)=O)(N3CCCCC3)CC2)nc2ccccc2c1=O | -1 | -2 | 0
CC(=O)c1c(C)[nH]c(C(=O)OCC(=O)N2CCc3ccccc3C2)c1C | 5 | 3 | -9
C=CCn1c(SCC(=O)N(CC)C2CCS(=O)(=O)C2)nc2sc3c(c2c1=O)CCC3 (stereo unspecified) | 6 | 2 | -2

Reformatted with the structure last: two of the compounds above
Yeast UUG start,MT1-MMP act inh,MT1-MMP act inh RFP,Compound
-1,-2,0,COc1ccc(C(=O)NC(C(=O)NCC2(N3CCCCC3)CCCCC2)C(C)C)cc1 (stereo unspecified)
1,-1,-2,COc1cc(OC)c(N2CC(C(=O)NCCC3=CCCCC3)CC2=O)cc1Cl (stereo unspecified)

Additional records follow:
SMILES | Yeast UUG start | MT1-MMP act inh | MT1-MMP act inh RFP
CCOC(=O)/C(C#N)=C/Nc1ccccc1NS(=O)(=O)c1ccc2c(c1)OCCO2 | -14 | -1 | -2
COc1ccc(CNC(=O)O[C@]23C[C@H]4C(=O)N(c5ccccc5)C(=O)[C@H]4C[C@@]2(O)CN(S(=O)(=O)c2ccc(C)cc2)C3)cc1OC | 1 | 0 | 4
O=C(COc1cccc(F)c1)Nc1nc(-c2cccnc2)cs1 | -2 | 2 | 1
Cc1cccnc1NS(=O)(=O)c1ccccc1 | -7 | -4 | 3
N#CC1(NC(=O)CSc2nncn2-c2ccccc2F)CCCC1 | -26 | 0 | -2
